Env fusion inh: inhibitors of HIV Env-mediated cell fusion; HeLa-JRFL Env/CEM21 cell fusion, luciferase; inhibition, % at 12.3 µM; hit rate 1.1% among 360,000; AID 651610;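 active = mean replicate inhibition score of at least 50 and every replicate individually at or above 50; inconclusive = only one of the two criteria met; inactive = mean below 50 and not all replicates reaching 50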;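 also: 0% = plate neutral controls and 100% = maraviroc near 300 nM; one replicate is shown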
eIF4H inh: inhibitors of RNA binding by human eIF4H; hit rate 0.94% among 290,000; eIF4H fluorescence polarization binding assay; inhibition, % at 35 µM; Q15056;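 active = 50% or more with normal probe brightness, or confirmed in later tests; inconclusive = above 50% with abnormal brightness, or retests that disagree; inactive = below 50% or failed in later tests; about a fifth of its hits are not listed in these tables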;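 also: calls also rest on retests at 20 µM and on dose response follow-up; 0% = protein and probe with vehicle and 100% = probe without protein; strong numbers were not always called active; many hits fall short of the cut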
CSC inhib: cancer stem cell inhibition. cancer stem cell-like cells viability, luminescence. inhibition, % at 7.5 µM. hit rate 1.1% among 300,000. AID 2717;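 active = mean at 75% or more and at least half the replicates too; inconclusive = mean and replicates disagree; tested in HMLE shEcad cells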;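 also: 0% = median of negative and 100% = median of positive control wells; the first replicate is given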
Yeast UUG start: modulators of start codon recognition fidelity in yeast; S. cerevisiae UUG-firefly luciferase reporter, luminescence/redox ratio; activity score, % at 18.7 µM; hit rate 0.13% among 350,000;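 active = replicate mean at a twofold rise or more, about +100% in these data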;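 also: firefly luciferase made from a UUG start codon reports start codon fidelity; reporter light over untreated wells divided by growth signal over untreated wells; some hits fall short of that in this replicate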
MT1-MMP act inh: inhibitors of human MT1-MMP activation | P50281 | HT1080 RFP-PRO-GFP cells, GFP/RFP ratio fluorescence, overnight; percent of plate control window, DMSO zero | GFP/RFP ratio change, % at 20 µM | hit rate 0.061% among 360,000 | AID 651647;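 active = GFP/RFP ratio change of at least 30% with cell ATP level not reduced by more than half and red fluorescence within 50% of control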; also: strong numbers were not always called active
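Assay system: HT1080 RFP-PRO-GFP cells | Dosing: 20 µM single dose, 1% DMSO | Incubation: Cells overnight before dosing, compound overnight, 37 °C, 5% CO2 | Evaluation: GFP/RFP fluorescence ratio | Control set: DMSO-only wells and HT1080 RFP-L50D-GFP cell wells as references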
PABP polyA inh: PABP-poly(A) binding inhibition; P11940; PABP-poly(A) RNA binding, fluorescence polarization; inhibition, % at 35 µM; hit rate 1% among 290,000; AID 2014;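 active = 50% or more with normal probe brightness, or confirmed in later tests; inconclusive = above 50% with abnormal brightness, or retests that disagree; inactive = below 50% or failed in later tests; about a fifth of its hits are not listed in these tables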;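 also: calls also rest on retests at 20 µM and on dose response follow-up; controls were probe without protein and protein plus probe with vehicle; some compounds called inactive have numbers as strong as hits; many hits fall short of the cut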
Target sequence (P11940 whole entry, looked up): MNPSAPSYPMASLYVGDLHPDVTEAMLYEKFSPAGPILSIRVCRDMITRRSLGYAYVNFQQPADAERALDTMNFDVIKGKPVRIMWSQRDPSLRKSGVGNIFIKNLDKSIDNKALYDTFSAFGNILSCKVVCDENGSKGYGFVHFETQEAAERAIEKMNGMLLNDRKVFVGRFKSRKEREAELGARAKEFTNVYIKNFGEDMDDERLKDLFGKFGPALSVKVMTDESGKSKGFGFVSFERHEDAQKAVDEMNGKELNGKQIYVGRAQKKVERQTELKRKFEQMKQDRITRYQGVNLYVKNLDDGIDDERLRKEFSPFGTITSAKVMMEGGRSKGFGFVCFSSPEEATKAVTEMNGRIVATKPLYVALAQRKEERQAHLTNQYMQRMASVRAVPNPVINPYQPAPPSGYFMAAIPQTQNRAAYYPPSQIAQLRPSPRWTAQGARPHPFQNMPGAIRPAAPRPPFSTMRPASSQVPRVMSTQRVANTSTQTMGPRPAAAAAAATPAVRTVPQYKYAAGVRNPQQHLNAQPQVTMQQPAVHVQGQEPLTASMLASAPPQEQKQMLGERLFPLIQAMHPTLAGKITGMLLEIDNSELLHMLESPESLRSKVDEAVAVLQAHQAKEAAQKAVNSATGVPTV
Rce1 inhib: blocks yeast Ras-converting enzyme; hit rate 0.27% among 290,000; AID 2563; Q03530; yeast membranes, quenched prenylated peptide cleavage fluorescence; calls only;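 active = fall in fluorescence gain of 50% or more versus controls, with final raw signal at or below 3038400; inconclusive = same 50% fall but final raw signal above 3038400; inactive = fall in fluorescence gain under 50%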;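 also: plate controls were neutral control wells for no effect and wells lacking membranes for full effect; tested at 10 µM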
eIF4H inh retest: second read-out of eIF4H inh, no call of its own (marks repeat the call); inhibition, %; compound at 20 µM; confirmation average;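 mean of two retest wells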
PABP polyA inh retest: further read-out of PABP polyA inh, marked with its call; inhibition, %; compound at 20 µM; confirmation repeats;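 mean of two retest wells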
MT1-MMP act inh RFP: second read-out of MT1-MMP act inh, no call of its own (marks repeat the call); RFP signal change, %; measured here: RFP expression control read;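 0 = vehicle wells; hits needed this value within 50% of zero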
The depositor's hits bear a star; i = inactive; ? = inconclusive; . = not tested or not shown; + = active, no number; & = joins results of further samples; [ ] = remark or other dose. The list is partial; rates above refer to the full screens.

SMILES	Env fusion inh	eIF4H inh	CSC inhib	Yeast UUG start	MT1-MMP act inh	MT1-MMP act inh RFP	PABP polyA inh	Rce1 inhib	others
Cc1cccc(NC(=S)NCC(c2ccccc2)N(C)C)c1 (stereo not drawn)	3	-3	-13	-5	2	5	3	i
COc1ccc(C2=NOC(Cn3nc(-c4ccccc4)cc3C(=O)NCc3ccco3)C2)cc1 (stereo not drawn)	0	.	-9	-6	0	-1	.	.
COCC1CCN(C(=O)CC2C(=O)NCCN2Cc2cccc(Oc3ccccc3)c2)CC1 (stereo not drawn)	1	-17	-8	-2	3	2	-3	i
O=C(NNC(=O)c1ccccc1Br)c1ccc(Cl)c(Cl)c1	-92	-5	-7	.	2	4	-1	i
O=C(Cc1coc(-c2ccc(F)cc2)n1)N1CCOCC1	.	13	-8	-9	1	4	-1	i
Cc1csc(NC(=O)CSc2nc(C)cs2)n1	.	0	6	-2	5	4	12	.
Cc1ccc(C(=O)NC2CCCc3ccccc32)cc1[N+](=O)[O-] (stereo not drawn)	21	-4	-20	0	-1	0	-10	i
NC(=O)Cn1c(=O)n(CC(=O)N2CCCCC2)c(=O)c2sccc21	-18	-3	-25	-3	-1	6	-3	i
Cc1ccccc1C(=O)OCCN(C)Cc1ccccc1	4	-3	-6	.	2	2	32	i
COc1cccc(C2SCC(=O)N2c2ccc(Br)cc2)c1OC (stereo not drawn)	18	-2	.	12	-1	-3	14	i
Cc1ccc(SCC(=O)Nc2ccc(N3CCOCC3)cc2)cc1	17	-12	-3	.	3	6	8	i
COc1ccc(NC(=O)CN(C)C(=O)c2ccc(NS(=O)(=O)c3ccc(F)cc3)cc2)cc1	-45	.	-13	-4	1	-2	.	i
Cc1ccc(F)c(S(=O)(=O)NC(=O)C2(C)CCN2C(=O)CC2CCCCC2)c1 (stereo not drawn)	4	.	.	-8	-1	3	.	.
CCC(=O)c1ccc(N2CCN(C(=O)COc3ccccc3F)CC2)c(F)c1	-12	3	10	.	7	0	-2	i
CC(=O)C1C(c2cccc([N+](=O)[O-])c2)C2C(C)=NN=C2CC1(C)O (stereo not drawn)	24	23	3	-20	5	2	-10	i
Cc1ccc(NC(=O)C(C)N2C(=O)C3C4CC(C(Br)C4Br)C3C2=O)cc1 (stereo not drawn)	15	1	-7	1	5	7	1	i
CCOc1cc(/C=C2\SC(=S)N(NC(=O)c3cccnc3)C2=O)ccc1O	3	83	-8	-13	-12	63	51	i	eIF4H inh retest=-5;PABP polyA inh retest=3
CCCSc1nc(N2CCOCC2)c2c(c1C#N)CCCC2	10	-4	.	1	-5	-7	-2	i
Cc1cccnc1NC(=O)CCc1nnc2ccc(N3CCC4(CC3)OCCO4)nn12	6	-7	9	-18	-1	4	1	i
O=C1Nc2ccccc2C(O)(C(=O)NCc2ccco2)N1c1ccccc1 (stereo not drawn)	1	-6	-1	.	2	5	9	i
CC(N=C1NS(=O)(=O)c2ccccc21)C(=O)NCc1ccncc1 (stereo not drawn)	-11	.	.	0	0	3	.	.
CC(NC(=O)COC(=O)/C=C/c1cccc(F)c1)c1ccccc1 (stereo not drawn)	.	.	-10	-17	6	-2	.	.
COc1cc2c(=O)n(C)c3ccccc3c2cc1OC	-6	.	.	2	1	-2	.	.
CS(=O)(=O)N1CCN(c2ccccc2NC(=O)c2cc3ccccc3o2)CC1	-50	-12	-12	-6	-2	-2	-3	i
CCOc1ccc(C2CC(c3ccc(F)cc3)n3ncnc3N2)cc1 (stereo not drawn)	7	-1	-15	-17	9	1	0	i
SMILES	Env fusion inh	eIF4H inh	CSC inhib	Yeast UUG start	MT1-MMP act inh	MT1-MMP act inh RFP	PABP polyA inh	Rce1 inhib	others
Cc1cc(C)c2c(n1)nn1c(N3CCN(c4ccccc4C)CC3)cc(C)nc21	13	.	-9	-14	1	4	.	.
COc1ccc(S(=O)(=O)Nc2ccc3c(c2)C(=O)N([C@H](C)CO)C[C@H](C)[C@@H](CN(C)S(=O)(=O)c2ccc(F)cc2)O3)cc1	1[16.7 µM]	.	-15	2&15	0	1	.	.
O=C(O)CCc1ccc(-c2cccs2)n1Cc1ccco1	-23	33	-8	8	0	5	35	+
CC1(C(=O)N(CC(=O)NC2CCCC2)Cc2ccc(Cl)cc2)CC(=O)N=C2C=CC=CN21 (stereo not drawn)	-2	7	.	-20	1	1	7	?
CCOC(=O)/C=C1\SCC(=O)N1CC(=O)Nc1ccc(C(C)C)cc1	.	-3	-7	6	-3	1	-2	i
COc1ccc(CCCNC(=O)C2Cc3c(-c4ccc5c(c4)OCO5)ccnc3O2)cc1 (stereo not drawn)	-24	.	.	6	0	-12	.	.
Cc1ccc(S(=O)(=O)CCC(=O)OCC(=O)NC2CCS(=O)(=O)C2)cc1 (stereo not drawn)	-19	.	-3	-19	0	2	.	i
Cc1c(Cl)cccc1NC(=O)c1cc(-c2ccccc2O)n[nH]1	.	3	39	-25	2	-6	-10	i
CCOc1ccc(OCC)c(NC(=O)C(NS(=O)(=O)c2ccc3c(c2)oc(=O)n3C)C(C)C)c1 (stereo not drawn)	?	-4	5	-5	-4	0	12	.
CC1(C)NC(=O)N(CC(=O)N2CCN(S(=O)(=O)c3ccccc3F)CC2)C1=O	.	.	-2	-15	1	3	.	.
COc1ccc(CCC(=O)O)c(C(CC(=O)O)C(=O)O)c1OS(=O)(=O)c1ccc(C)cc1 (stereo not drawn)	10	.	.	-3	4	0	.	.
Cc1c(NC(=O)/C(C#N)=C/c2cccs2)c(=O)n(-c2ccccc2)n1C	-8	2	5	.	3	4	-10	i
O=C(NC(Cc1ccccc1)C(=O)O)/C(=C\c1ccc(Cl)cc1)NC(=O)c1ccco1 (stereo not drawn)	-1	3	2	-20	-4	1	12	i
C(=N\Nc1nc2ccccc2[nH]1)/c1ccccn1	20	1	.	.	-4	-2	12	i
COc1cc(S(=O)(=O)NC2CCCC2)c(OC)cc1C	-9	1	2	-17	3	3	5	i
O=C(c1ccc2nccnc2c1)N1CCN(c2ccccc2)CC1	8	-5	-12	-3	-1	5	3	i
O=C1CC(N2CCN(S(=O)(=O)c3ccc([N+](=O)[O-])cc3)CC2)C(=O)N1c1ccccc1F (stereo not drawn)	8	.	.	4	-1	0	.	.
CC(C)c1cc(-c2cc(C(=O)NCc3ccccc3)on2)nc(NC2CCCC2)n1	-2	-9	-17	-14	-2	-6	4	i
CC1=Nc2nc(N3CCCCC3)c(C#N)c3c4c(nc(c23)N1)N(c1ccc(C(C)C)cc1)C(=O)C4	-3	?	-3	-4	-9	-1	-1	i
CN1CCN(S(=O)(=O)c2ccc(NCc3ccc4c(c3)OCO4)nc2)CC1	6	5	.	-14	5	8	-6	i
Cn1ccnc1CN1CCCCC1C(=O)Nc1ccc(Oc2cccnc2)cc1 (stereo not drawn)	21	-1	6	-15	-4	-6	2	i
O=C(Nc1ccc(Cl)cc1)[C@@H]1[C@@H]2C(=O)N(c3ccc(Cl)cc3)C(=O)[C@@H]2[C@H]2C=CC=NN21	-62	2	3	-6	-2	4	26	i
CC(C)C(=O)NC(=S)Nc1nnn(C)n1	-15	2	-4	-21	2	4	-2	i
COc1cccc(-c2cc(C(F)(F)F)n3nc(C(=O)N4CCCCC4c4cccnc4)cc3n2)c1 (stereo not drawn)	14	2	8	-15	-5	-19	-7	i
Cc1ccc(NC(=O)Nc2cnccn2)cc1	-78	7	13	6	2	6	9	i
SMILES	Env fusion inh	eIF4H inh	CSC inhib	Yeast UUG start	MT1-MMP act inh	MT1-MMP act inh RFP	PABP polyA inh	Rce1 inhib	others
COc1cc(/C=N/NC(=O)CCN2CCN(c3ccccc3)CC2)cc(OC)c1OC	-1	-11	12	.	4	10	2	i
O=C(NCc1cccnc1)c1cccc2c1C(=O)N(Cc1cccnc1)C2	8	8	-7	-24	1	6	4	i
O=C1COc2ccc(C(=O)COC(=O)c3ccccc3Cl)cc2N1	-14	.	-18	.	2	1	.	.
Cc1ccc(/C=C/C(=O)OCC(=O)Nc2ccccc2Sc2ccccc2)cc1	-6	-2	18	.	3	0	-5	i
Cc1ccc(NC(=S)Nc2ccc(Cl)c(Cl)c2)c(OC(F)F)c1	13	-5	.	.	2	1	-2	i
Brc1ccc(-c2cn3ccccc3n2)cc1	-98	-1	-7	-29	9	-8	-2	i
COCC1CCN(C(=O)C2CCC(=O)N(CCc3ccc(Cl)cc3)C2)CC1 (stereo not drawn)	-5	-7	-7	-6	3	0	-9	i
O=C1Nc2cc(C(F)(F)F)ccc2N2CCCCC12 (stereo not drawn)	4	-1	7	-13	0	0	-2	i
O=c1[nH]c2ccccc2nc1Cc1ccccc1	.	-11	-4	.	3	-1	7	i
CN(C)CC/C=C1/c2ccccc2Sc2ccc(Cl)cc21	-10&18	-1	3&-15	-30&-27	-7&-4	-8&-8	0	i
CC(=O)c1ccc(NC(=O)C(C)n2c3ccccc3c3nc(=O)cc(C)n32)cc1 (stereo not drawn)	4	1	0	.	-1	0	14	i
Cc1c(C(=O)N2CCCCCC2)c(S(=O)(=O)Nc2ccccc2F)c(C)n1C	9	1	-8	-8	3	-3	-4	i
CC1CCCCN1C(=O)C(=O)c1cn(CC(=O)N2CCCC2)c2ccccc12 (stereo not drawn)	-12	5	5	-11	0	2	7	i
CCN(CC)C(=O)CSc1nnc(C2CCCCC2)o1	-24	-1	2	-6	-4	2	-7	.
CCc1ccccc1NC(=O)C/C(C)=N/NC(=O)COc1ccccc1C	15	-1	.	-8	-1	0	-4	i
COCCn1c(SCC(=O)NCc2ccc(OC)c(OC)c2)nc2ccccc21	2	-4	2	-7	-1	1	-5	i
CCOCCCNC(=O)C1CCC(CNS(=O)(=O)c2ccc(OC)cc2)CC1 (stereo not drawn)	-6	-1	-7	.	0	2	-3	i
Cc1nn(CC(O)Cn2c3c(c4ccccc42)CCN(C)C3=O)c(C)c1Br (stereo not drawn)	-5	-5	-7	-9	-8	-13	6	i
COc1cccc(-n2ccn(CC(=O)NCCc3ccccc3)c(=O)c2=O)c1	1	.	21	-24	5	6	.	i
COc1ccc(NC(=O)CSc2nc3ccccc3c(=O)n2Cc2cccs2)c(OC)c1	.	-9	-1	.	.	.	18	i
Cc1ccc(/C=C2\SC(=S)N(CCCC(=O)Nc3cccc(C(=O)O)c3)C2=O)cc1	-135	2	1	-22	-1	0	17	i
O=C(CNC(=O)c1ccco1)OCC(=O)c1ccccc1	-5	-5	-10	-19	7	2	10	i
CC(C)Cc1ccc(C(=O)NCCOc2ccccc2)o1	-9	1	-12	-54	11	2	12	i
Cn1cc(CNCc2cn[nH]c2-c2ccc(F)cc2)c(-c2ccc3c(c2)OCCO3)n1	13	-12	-10	.	1	7	-4	i
CCOC(=O)C1(CCOC)CCN(Cc2cc3ccccc3s2)CC1	-8	5	10	2	6	-4	3	i
COc1ccc(N2CCN(C(=O)CN3C(=O)NC4(CCCCC4C)C3=O)CC2)cc1 (stereo not drawn)	6	.	.	-9	4	3	.	.
O=C(CCn1ccnc1)Nc1nc2ccccc2[nH]1	-42	-2	-5	-6	0	7	12	i

Fetched by structure from above (2):
SMILES	Env fusion inh	eIF4H inh	CSC inhib	Yeast UUG start	MT1-MMP act inh	MT1-MMP act inh RFP	PABP polyA inh	Rce1 inhib	others
COCC1CCN(C(=O)C2CCC(=O)N(CCc3ccc(Cl)cc3)C2)CC1 (stereo not drawn)	-5	-7	-7	-6	3	0	-9	i
Cc1nn(CC(O)Cn2c3c(c4ccccc42)CCN(C)C3=O)c(C)c1Br (stereo not drawn)	-5	-5	-7	-9	-8	-13	6	i
